Screening data as filed in PubChem BioAssay.
HCMV NEC inh – inhibitors of HCMV UL50-UL53 interaction, biochemical, HTRF. hit rate 0.15% among 190,000. AID 1918969, 2023. HCMV UL50-UL53 nuclear egress complex (human cytomegalovirus). inhibition, % (no concentration beside the values). normalized percent inhibition;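 active means both replicates at 50% or more, plus weaker picks with an unusually low signal ratio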;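 further: stock transfer was 100 nL into about 20 µL; 0% = negative control wells and 100% = wells with untagged competitor protein; inactives centre near -12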
Sa growth inh – S. aureus growth inhibition at 42 and 30 °C, primary screen, LtaS inhibitor project, RN4220, two temperatures; OD600, 20 h, 42 °C; active compounds read low; relative growth, % (concentration not given with the values); hit rate 0.53% among 170,000; AID 720641, 2013;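 active means growth at 42 °C up to 50% and 20 or more points under that at 30 °C, or under 10% at both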;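 further: 300 nL library stock went into each well; scaled to the means of positive and negative controls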
GIV Gai3 FP – inhibitors of GIV peptide binding to Galpha-i3, primary screen, biochemical, fluorescence polarization, FITC-GIV GBA peptide, rat Galphai3. 90 min; active compounds read low; scaled: aluminum fluoride 0%, vehicle 100%. percent of control (FP), % (concentration not given with the values). hit rate 0.42% among 210,000;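 active means replicate mean at 85% of control or lower, very high polarization wells dropped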;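 further: wells of about 15 µL received 100 nL stock; the first replicate is given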
Target sequence (P08753 whole entry, looked up): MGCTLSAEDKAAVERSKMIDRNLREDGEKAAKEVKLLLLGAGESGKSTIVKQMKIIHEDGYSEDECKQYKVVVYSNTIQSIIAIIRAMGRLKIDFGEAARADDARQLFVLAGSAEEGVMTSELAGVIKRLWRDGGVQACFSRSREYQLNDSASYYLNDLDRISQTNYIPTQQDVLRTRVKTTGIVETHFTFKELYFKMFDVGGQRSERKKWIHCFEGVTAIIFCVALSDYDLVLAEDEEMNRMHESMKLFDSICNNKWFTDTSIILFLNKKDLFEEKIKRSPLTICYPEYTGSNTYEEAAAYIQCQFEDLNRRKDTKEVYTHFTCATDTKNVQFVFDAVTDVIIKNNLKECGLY
Sa growth inh second temp – second read-out of Sa growth inh, no call of its own (marks repeat the call); relative growth, %; measured here: growth at 30 °C;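 optical density after 20 h as mean of two plates; 100% = untreated growth and lower means inhibition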
The depositor's hits bear a star; nt = no result given; & = joins results of further samples.

compound	HCMV NEC inh	Sa growth inh	Sa growth inh second temp	GIV Gai3 FP
CC1=C(C(=O)NCCCN2CCN(c3cc(Cl)ccc3C)CC2)C2(CCCCC2)OC1=O	nt	96	22	105
COc1ccc(CNC(=O)c2cc3sccc3n2CC(=O)c2ccccc2)cc1	-4	120	82	106
CC(C)CS(=O)(=O)C1=NN2C(=N)/C(=C\c3ccc(N(C)C)c(Br)c3)C(=O)N=C2S1	nt	94	73	114
O=C(NCc1ccccn1)C1CCN(S(=O)(=O)c2cc(C(=O)N3CCCC3)cs2)CC1	1	nt	nt	112
Cc1ccc(NC2(C#N)C(=O)Nc3ccccc32)cc1 (configuration not stated)	0	98	84	nt
CC(C)c1nn2c(=O)cc(COC(=O)c3cccc(NC(=O)COc4ccc(F)cc4)c3)nc2s1	nt	82	93	103
Cc1ccc(S(=O)(=O)NCC2CCCO2)cc1 (configuration not stated)	4	97	77	95
CCn1c(=O)c(SCC(=O)NCCc2cccc(OC)c2)nc2ccccc21	-19	nt	nt	100
Cc1ccc(C)c(N2CCN(CCCNS(=O)(=O)c3ccc4oc(=O)c5ncn(C)c5c4c3)CC2)c1	-18	80	64	99
O=c1/c(=C/c2cccc(F)c2)sc2nc(C3COc4ccccc4O3)nn12 (configuration not stated)	-33	84	81	101
COCCNC(=O)c1c(C)oc2nc(C)nc(N3CCOCC3)c12	nt	76	87	98
Cc1cc(C)n2nc(CN(C(=O)C3CCCCC3)c3cccc(Cl)c3)nc2n1	-22	nt	nt	102
CCCC(=O)N1c2ccccc2NC2=C(C(=O)CCC2)C1c1ccc(C)cc1 (configuration not stated)	-11	nt	nt	97
N#CCCn1nnc(-c2ccc(Cl)cc2)n1	0	99	96	nt
O=C(CSc1nnc2scc(-c3ccc(Cl)cc3)n12)NCc1ccc2c(c1)OCO2	nt	85	91	99

Structures listed so far with a cyano group (2):
compound	HCMV NEC inh	Sa growth inh	Sa growth inh second temp	GIV Gai3 FP
Cc1ccc(NC2(C#N)C(=O)Nc3ccccc32)cc1 (configuration not stated)	0	98	84	nt
N#CCCn1nnc(-c2ccc(Cl)cc2)n1	0	99	96	nt

The list goes on.
compound	HCMV NEC inh	Sa growth inh	Sa growth inh second temp	GIV Gai3 FP
COc1ccc(CCNC(=O)c2cnn(-c3cccc(C)c3)c2C2CCN(C(=O)OC(C)(C)C)CC2)cc1OC	nt	104	99	104
Cc1ccc(-c2ccc(N3CCCC(C(=O)NCCN(C)C4CCCCC4)C3)nn2)cc1 (configuration not stated)	-53	nt	nt	106
Cc1ccc(C(=O)COC(=O)C2c3ccccc3Oc3ccccc32)cc1C	nt	90	91	102
CC(C)C(=O)Nc1nc2ccc(S(C)(=O)=O)cc2s1	-3	115	71	nt
CSc1nc(-c2ccc(C)cc2)nc(N)c1C#N	-150	97	85	104
CNC(=O)CN1C(=O)CSc2nc(C)cc(C)c21	0	90	83	105
COc1nsc(SC)c1C#N	-15	89	80	nt
O=C(c1cccn1-c1nnc(N2CCCC2)s1)N1CCN(c2ccc(Cl)cc2)CC1	nt	67	72	101
CCOC(=O)NS(=O)(=O)c1ccccc1Cl	-36	108	85	104
COc1ccc(Cc2nc3ccc(C(=O)NCc4ccccc4Cl)cc3o2)cc1	nt	78	93	101
O=C(O)c1cc2c(F)cccc2s1	1	99	98	nt
CCc1ccc2occ(CC(=O)Nc3ccc(S(N)(=O)=O)cc3)c2c1	-12	nt	nt	102
CN(C)S(=O)(=O)c1ccc2c(c1)/C(=C/c1cc3c([nH]1)CCCC3)C(=O)N2	-18&1&1&-5	nt	nt	-21*
Cc1ccc2c(c1)OC=CC(C(=O)Nc1ccc(C)c(C)c1)=C2	-13	nt	nt	102
Cc1cc2cc3c(cc2nc1SCCN1CCCC1)OCCO3	14	68	66	107
CCOC(=O)c1noc2ncn(CC(=O)Nc3ccc(F)cc3Cl)c(=O)c12	nt	103	94	103
CC(N)=O	-13	nt	nt	106
COC(=O)c1nc2ccccc2nc1NCc1cc(OC)ccc1OC	4	nt	nt	111
CCOC(=O)C1CCCN(C(=O)c2cc3c(=O)n(C)c4ccccc4c3s2)C1 (configuration not stated)	-44	97	76	98
O=C1CN(C(=O)c2ccc(S(=O)(=O)N3CCOCC3)cc2)C(c2ccccc2)c2cc(F)ccc2N1 (configuration not stated)	-6	98	92	103
C=CCNC(=O)c1ccc2c(c1)OCO2	-15	126	96	102
COc1ccc(CNC(=O)/C=C/c2c(C)nn(C3CCS(=O)(=O)C3)c2Cl)cc1OC (configuration not stated)	4	85	94	nt
COc1ccc(-c2noc(COC(=O)CSc3ncnc4sccc34)n2)c(OC)c1	-20	106	90	nt
CCOC(=O)Nc1nc2ccccc2s1	-11	98	95	nt
CC1=C(C(=O)OCC2CCCCC2)C(c2cccc(Oc3ccccc3)c2)NC(=O)N1 (configuration not stated)	12	nt	nt	107
O=C(Nc1cccc(F)c1)c1c(Cl)nc2ccccn12	14	111	97	nt
Cc1ccnc(NS(=O)(=O)c2ccc(NC(=O)CSc3nc(C)cc(=O)[nH]3)cc2)n1	-37	78	87	101
CCOc1ccc(-c2noc(-c3scc(-c4cccc(C)c4)c3-n3cccc3)n2)cc1OC	-24	nt	nt	99
O=C1CC(c2ccccc2)c2c(O)cc(O)cc2O1 (configuration not stated)	-13	nt	nt	105
CCOC(=O)c1cnn2c(-c3ccc(C)c(C)c3)ccnc12	-84	nt	nt	107

Some of these compounds in order of formula weight, low to high:
compound	HCMV NEC inh	Sa growth inh	Sa growth inh second temp	GIV Gai3 FP
COC(=O)c1nc2ccccc2nc1NCc1cc(OC)ccc1OC	4	nt	nt	111
CCOC(=O)C1CCCN(C(=O)c2cc3c(=O)n(C)c4ccccc4c3s2)C1 (configuration not stated)	-44	97	76	98
CC1=C(C(=O)OCC2CCCCC2)C(c2cccc(Oc3ccccc3)c2)NC(=O)N1 (configuration not stated)	12	nt	nt	107

Later entries
compound	HCMV NEC inh	Sa growth inh	Sa growth inh second temp	GIV Gai3 FP
O=C(c1cc(-c2ccccc2)n[nH]1)N1CCN(S(=O)(=O)c2ccc(F)cc2)CC1	-16	nt	nt	94
Cc1cc(Cl)ccc1OCCn1cncn1	-8	104	81	96
CCOC(=O)Cc1c(C)c2ccc(N(CC)CC)cc2oc1=O	-54	83	76	107
CC(Sc1ncn[nH]1)C(=O)Nc1ccccc1C#N (configuration not stated)	-8	97	100	104
Clc1ccc(NCCC2=CCCCC2)nn1	-7	118	72	103
COc1ccccc1NC(=O)CSc1oc(-c2cccs2)nc1S(=O)(=O)c1ccccc1	4	94	96	101
CS/C(NCc1cccnc1)=C(/C#N)C(=O)C1CC1	-5	110	73	101
CCc1sc(C(=O)N2CCN(S(=O)(=O)c3ccccc3)CC2)cc1Br	6	105	110	101
CN(C)c1ccc(NC(=O)CC(C(=O)O)N(C)C)cc1 (configuration not stated)	-21	103	91	99
Cc1ccc2c(CC(=O)N3CCN(c4cccc(Cl)c4)CC3)coc2c1C	-6	111	100	102
Cc1cc(N2CCC(C)CC2)n2ncc(-c3ccc(F)cc3)c2n1	5	nt	nt	97
Fc1ccc(-n2nnnc2-c2cnccc2C(F)(F)F)cc1	-27	99	95	101
COc1ccc2c(c1)c1c(c(=O)n(CCc3ccccc3)c(=O)n1Cc1ccccc1)n2C	nt	100	89	109
CC(C)(C)OC(=O)CN1C(=O)c2ccccc2S1(=O)=O	-2	87	86	nt
Cc1cc(C)c(Cn2c(=O)n(CCC(=O)NCCc3ccccc3)c(=O)c3ccccc32)c(C)c1	-2	96	87	105
Cc1onc(-c2c(F)cccc2Cl)c1NC(=O)OCc1sccc1-n1c(C)ccc1C	-24	98	92	114
NC(=O)N/N=C/c1cccc(C(F)(F)F)c1	-22	95	93	nt
CCc1ccc(O)c(C(=O)c2cnc3cc(-c4ccccc4)nn3c2)c1	-24	nt	nt	97
COc1cc(/C=C2/OC(=S)N(C)C2=O)ccc1O	-64	93	70	-73*
C[C@]12C=CC(=O)C=C1CCC1C2[C@@H](O)C[C@@]2(C)C1CC[C@]2(O)C(=O)COC(=O)CCC(=O)O (some centres not stated)	-26	95	94	nt
N#CC(C(=O)CSc1nc2ccccc2n1-c1ccccc1)c1ccccc1 (configuration not stated)	-7	97	99	nt
CC(C)c1ccc(NC(=O)C2C3C=CC4(CN(Cc5cccnc5)C(=O)C24)O3)cc1 (configuration not stated)	nt	107	93	104
Cn1c(=O)c2c(nc(SCCN3CCOCC3)n2Cc2ccccc2Cl)n(C)c1=O	-23	88	76	94
Cc1cc(Cl)ccc1OCc1nc(-c2ccc3c(c2)[nH]c(=O)n3C2CCCC2)no1	-18	nt	nt	108
CCCNC(=O)NCc1cc(C)n(-c2ccc(OC)cc2)c1C	-35	86	82	128
Cc1cc(C(=O)Nc2ccc(N3CCOCC3)cc2)no1	-42	97	89	nt
CCOC(=O)N1CCN(S(=O)(=O)N2CCCC(C(=O)NCc3ccc(F)cc3)C2)CC1 (configuration not stated)	nt	88	88	106
O=C1NCC2=C1C(c1ccc(Br)cc1)Nc1ccccc1N2 (configuration not stated)	-13	105	74	98
OC(c1ccccc1)c1ccc(Br)cc1 (configuration not stated)	-11	109	98	104
O=C(CC(C(=O)O)C1CCCO1)Nc1ccccc1 (configuration not stated)	1	115	78	nt
CCOC(=O)c1ccc(NC(=O)c2sc(NC(=O)c3cccs3)c(C(=O)OCC)c2C)cc1	-12	nt	nt	101
O=C(c1ccccc1Br)N(Cc1ccco1)Cc1ccco1	-26	110	82	100
O=C(Nc1ccc(Cl)cc1)C1C2CCCCC21 (configuration not stated)	6	77	97	100
CC(Oc1ccccc1)C(=O)Nc1nnc(C2CCCCC2)s1 (configuration not stated)	-14	89	66	nt
Nc1nc(N)c2nc(-c3ccccc3)c(N)nc2n1	-14&-74&-63&-85&-72	90	46	107
COc1cccc(NC(=O)C2CC3CCCN3C23C(=O)N(C)c2ccccc23)c1 (configuration not stated)	-10	95	92	102
Cc1oc(S(=O)(=O)N2CCOCC2)cc1-c1nc(-c2ccc(C(C)(C)C)cc2)no1	-42	102	90	98
Cc1ccc(S(=O)(=O)N(CCO)CCO)cc1	-15	91	85	105
O=C(Nc1cccnc1)c1cc2nc(C3CC3)cc(C(F)(F)F)n2n1	-48	108	96	109
COc1ccc(-c2c(C#N)c(SCC(=O)Nc3ccc(C)c(C)c3)nc(C)c2C(=O)Nc2ccccc2)cc1OC	-54	84	90	105
Cc1ccnc(NS(=O)(=O)c2ccc(NC(=O)c3ccccc3Br)cc2)n1	nt	90	78	104
CC(CCc1ccccc1)NC(=O)C1CCCN(c2ccnc(-c3ccccc3)n2)C1 (configuration not stated)	6	nt	nt	101
CCC(Sc1nc2ccc(Br)cc2c2nc3ccccc3n12)C(=O)NCC1CCCO1 (configuration not stated)	nt	96	86	100
Cc1cc2n(n1)CCCN2C(=O)Nc1cccc(C)c1C	-4	86	89	100&108
O=c1/c(=C/c2ccc(-c3cccc(C(F)(F)F)c3)o2)sc2nc(-c3ccncc3)nn12	-18	82	90	nt
CC(C)(C)c1onc(OCP(=O)(O)O)c1CC(N)C(=O)O (configuration not stated)	-19&-20	nt	nt	105&99
CC1=C(C)CC(C(=O)NCc2ccc3c(c2)OCO3)C(C(=O)O)C1 (configuration not stated)	nt	106	93	104
CCC1CCCCN1CC(=O)c1ccc(Cl)s1 (configuration not stated)	-3	90	88	nt
Nc1cc(=O)nc(SCC(=O)N2CCCc3ccccc32)n1-c1ccccc1	-15	98	83	102
Cc1ccc(S(=O)(=O)c2nnn3c2nc(NCc2ccc(F)cc2)c2sccc23)cc1C	nt	126	83	98
CCOC(=O)c1cc(-c2cccs2)on1	-6	102	90	100
Cc1cc(CNC(=O)Nc2cccc(F)c2)c(C)n1-c1ccc(Cl)cc1	0	nt	nt	120
Cc1cccc(-n2c(=O)c3c4c(sc3n3c(=S)[nH]nc23)CCCC4)c1	nt	106	79	100
Cc1ccc(S(=O)(=O)N2CCCC2C(N)=O)cc1 (configuration not stated)	7	91	84	103
CCc1ccc(-n2nnc(C(=O)Nc3ccccc3)c2C)cc1	-25	83	86	101
CN(C(=O)[C@H]1[C@@H]2C[C@@H]3[C@H]1C(=O)O[C@@H]3C2)c1ccccc1Cl	nt	101	88	100
O=[N+]([O-])c1ccc(Cl)c(N=Cc2nc(-c3ccc(Br)cc3)oc2O)c1	2	nt	nt	104
Cc1nc(-c2ccccc2)sc1CCNC(=O)C(=O)Nc1ccc2c(c1)OCCO2	nt	119	94	103

3 compounds picked at random from those above:
compound	HCMV NEC inh	Sa growth inh	Sa growth inh second temp	GIV Gai3 FP
CCc1sc(C(=O)N2CCN(S(=O)(=O)c3ccccc3)CC2)cc1Br	6	105	110	101
O=C(Nc1ccc(Cl)cc1)C1C2CCCCC21 (configuration not stated)	6	77	97	100
CC(N)=O	-13	nt	nt	106
